AF4-AF9 inh: blocks AF4 peptide binding to human AF9; 350,000 tested, 0.47% active; AlphaScreen, biotin-AF4 peptide binding to FLAG-AF9; P42568; inhibition, % at 10 µM;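 active means every replicate reaching a set inhibition limit, whatever the replicate mean, cut at about 25% in these data; inconclusive means mean inhibition reaches that limit but some replicates miss it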;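 further: 0% = plate neutral control median and 100% = total signal loss; the record names both 10 and 1 µM as test concentration; the first replicate is given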
rRNA inh HTS: selective bacterial rRNA inhibition in E. coli | E. coli WT GFP vs humanized-ribosome RFP mutants, fluorescence, 24 h; stronger effect = lower value; DMSO median 0, no signal -100 | GFP signal change (wild-type ribosome), % (concentration not given with the values) | 350,000 tested, 1.6% active;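 active means significant combined selectivity score with lowered wild-type GFP, culture density cut under 30%, mutant RFP and density less affected; inactive means any of these conditions unmet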; further: one replicate is shown; some compounds called inactive have numbers as strong as hits
ALR inh: inhibitors of human sulfhydryl oxidase ALR; P55789; purified ALR, DTT oxidation, H2O2 HRP-luminol luminescence; inhibition, % (concentration not given with the values); 290,000 tested, 3.8% active; AID 485317;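 active means mean and each replicate at 75% or more; inconclusive means only one of the two met; inactive means neither met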;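 further: stock transfer was 7.5 nL into about 7.5 µL; 0% = neutral wells and 100% = wells with inactivated enzyme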
Target sequence (P55789 whole entry, looked up): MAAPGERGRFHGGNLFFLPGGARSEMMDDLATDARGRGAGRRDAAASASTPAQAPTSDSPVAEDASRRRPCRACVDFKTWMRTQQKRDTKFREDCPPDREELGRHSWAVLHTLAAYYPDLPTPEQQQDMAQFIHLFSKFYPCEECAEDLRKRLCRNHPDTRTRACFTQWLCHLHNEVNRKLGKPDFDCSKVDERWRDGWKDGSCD
FGF22 binding: FGF22 (human) thermal shift binding. Q9HCT0. recombinant FGF22 thermal shift, SYPRO orange fluorescence; percent of sucrose octasulfate shift, DMSO zero. calls only at 9.99 µM. 340,000 tested, 1.5% active. AID 651658;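 active means melting point raised past a set limit in the mean and every replicate; inconclusive means no clear call; three in four hits are not shown here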
Target sequence (Q9HCT0 whole entry, looked up): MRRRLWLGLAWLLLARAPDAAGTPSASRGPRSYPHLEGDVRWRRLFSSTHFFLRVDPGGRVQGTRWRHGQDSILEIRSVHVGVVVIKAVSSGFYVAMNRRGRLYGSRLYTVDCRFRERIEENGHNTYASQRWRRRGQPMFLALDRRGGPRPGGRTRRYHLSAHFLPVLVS
Ecoli growth: blocks Escherichia coli growth; OD600, 23 h; stronger effect = lower value; OD600 absorbance (test concentration not listed); 330,000 tested, 0.21% active;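 active means OD600 absorbance below the run mean of sample wells minus 3.6 SD, in any replicate, cut at about 0.56 in these data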;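 further: stock transfer was 300 nL into about 60 µL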
Vif A3G: inhibitors of Vif binding to APOBEC3G peptide, primary screen, biochemical, TR-FRET, GST-Vif 1-94, biotin-A3G peptide, dose response retest (AID 1117319); 260,000 tested, 0.57% active; inhibition, %, or IC50 in µM where a hit was titrated; TR-FRET GST-Vif / biotin-A3G peptide binding; higher % means a stronger effect; test concentration not given here; strong numbers were not always called active;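 active means above the screen mean plus three standard deviations and confirmed in dose response; inconclusive means results disagree or hit not tested in dose response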;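 further: Vif residues 1-94 fused to GST binding biotinylated APOBEC3G peptide 110-148; 0% = full assay without inhibitor and 100% = GST in place of GST-Vif; retest series ran down from 100 µM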
HNF4A DNA FP: change in binding of human HNF4 alpha to DNA; HNF4a-FITC DNA binding, fluorescence polarization, 1 h; activity change, % at 10 µM; 360,000 tested, 0.3% active; AID 1224865; in the data active means activity change above about 30%, passing the limit was not always enough;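 further: controls were the assay level and a saturating level of protein; the project sought stronger binding though the title names inhibitors; some compounds called inactive have numbers as strong as hits; positive values seem to mean higher polarization but the record does not say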
Target sequence (P41235 whole entry, looked up): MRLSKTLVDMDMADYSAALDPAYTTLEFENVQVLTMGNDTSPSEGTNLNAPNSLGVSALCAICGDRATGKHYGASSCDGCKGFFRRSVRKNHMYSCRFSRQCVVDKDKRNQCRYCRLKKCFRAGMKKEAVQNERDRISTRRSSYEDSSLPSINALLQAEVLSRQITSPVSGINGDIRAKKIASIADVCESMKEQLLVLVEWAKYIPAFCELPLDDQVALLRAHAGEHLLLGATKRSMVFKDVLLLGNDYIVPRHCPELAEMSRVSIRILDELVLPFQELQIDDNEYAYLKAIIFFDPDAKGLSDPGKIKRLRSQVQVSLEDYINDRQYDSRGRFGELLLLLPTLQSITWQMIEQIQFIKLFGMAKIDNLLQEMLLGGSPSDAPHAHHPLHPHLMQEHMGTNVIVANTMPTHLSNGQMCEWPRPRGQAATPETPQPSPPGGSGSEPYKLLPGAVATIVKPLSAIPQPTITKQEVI
rRNA inh HTS OD600: recorded beside rRNA inh HTS, whose call it bears; OD600 change, %; measured here: OD600 growth;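 optical density of the mix in the first replicate; 0 = DMSO median and -100 = no signal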
rRNA inh HTS RFP: recorded beside rRNA inh HTS, whose call it bears; RFP signal change, %; measured here: RFP humanized mutant strains;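 first replicate; 0 = DMSO median and -100 = no signal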
* = called active by the depositor; i = inactive; ? = inconclusive; · = no result given; & = joins results of further samples. The list is partial; rates above refer to the full screens.

Each structure is followed by: AF4-AF9 inh, rRNA inh HTS, rRNA inh HTS OD600, rRNA inh HTS RFP, ALR inh, FGF22 binding, Ecoli growth, Vif A3G, HNF4A DNA FP
1) CCOC(=O)c1sc(NC(=O)CSc2nc(C)cc(-c3ccccc3)n2)c(C#N)c1C
    ·, ·, ·, ·, 2.2, ·, 0.659, 2.4%, -0.5
2) CO[C@H]1CN(C)C(=O)c2cc(NS(=O)(=O)c3ccccc3)ccc2OC[C@@H](C)NC[C@H]1C
    -0.5, 5.0, 2.6, -1.1, ·, i, ·, ·, ·
3) CC(C)(C)c1ccc(C(=O)Cn2nc(C(=O)O)c3ccccc3c2=O)cc1
    1.8, -1.4, -4.4, -6.8, 1.5, i, 0.683, 28.8%, 10.7
4) O=C(C1CCOCC1)N1CC(=O)N2[C@@H](CO)[C@H](c3ccc(C4=CCCC4)cc3)[C@@H]2C1
    -5.1, 6.3, 12.0, -7.1, ·, i, ·, ·, ·
5) Nc1nc(CN2CCN(Cc3ccc4c(c3)OCO4)CC2)nc(Nc2ccccc2)n1
    ·, ·, ·, ·, -14.7, ·, 0.597, 2.2%&-0.8%, -1.6
6) CN1CCN(S(=O)(=O)c2ccc(N(C)CC(=O)Nc3ccc(F)cc3)nc2)CC1
    ·, ·, ·, ·, 5.5, ·, 0.722, 1.0%, ·
7) Cc1nc2c3ccccc3nc(NNC(=O)CCC(=O)N3CCC(C)CC3)n2n1
    -2.3, 9.3, 12.2, -0.1, 1.9, i, 0.684, ·, 6.0
8) Cc1cc(C)nc(Nc2n[nH]c(C)n2)n1
    -0.1, 17.5, 13.9, -1.4, 1.8, i, 0.712, 16.7%, -1.1
9) CC1(C)C(=O)OC(c2c3ccccc3cc3ccccc23)C(C)(C)C1=O (stereo not drawn)
    1.1, -1.9, 6.8, 6.8, -19.5, i, 0.658, -8.2%, 0.1
10) CCC(=O)N(C)C[C@@H]1Oc2ncc(C#CC3(O)CCCC3)cc2C(=O)N([C@H](C)CO)C[C@@H]1C
    -2.2, 0.1, -14.2, -1.7, ·, i, ·, ·, ·
11) CCCCOc1ccccc1NC(=O)CC1SC(=NCC)N(CC)C1=O (stereo not drawn)
    ·, ·, ·, ·, -8.9, ·, 0.727, ?, -1.7
12) Cc1cccc(C)c1NC(=O)CN(C)C(=O)c1ccccc1OCc1ccc(F)cc1
    0.4, -0.4, -4.8, 1.0, ·, i, 0.692, -5.8%, 13.3
13) OCC[C@H]1C[C@H](O)[C@@H](O)[C@]2(Cc3ccccc3CO2)O1
    0.8, 24.6, 8.0, -5.3, -4.6, i, ·, ·, -1.4
14) CCCn1c(C)cc(C(=O)COc2ncnc3sccc23)c1C
    -24.1, -9.5, -1.4, -3.5, -1.6, i, 0.648, 12.6%, 2.2
15) COc1ccc(NC(=O)C2CCN(S(=O)(=O)c3ccc4c(c3)NC(=O)CO4)CC2)cc1
    0.1, -5.4, 4.4, 1.2, -0.8, i, 0.644, -3.1%, 0.8
16) C[C@H](CO)N1C[C@H](C)[C@@H](CN(C)S(=O)(=O)c2ccc3c(c2)OCCCO3)OCc2cn(nn2)CCCC1=O
    -5.3&-1.7, 1.3, 0.7, 1.9, ·, i, ·, ·, -1.2
17) COc1ccc(NC(=O)CCN2C(=O)C3CC=C(Cl)CC3C2=O)cc1 (stereo not drawn)
    ·, ·, ·, ·, -2.9, ·, 0.649, -2.7%, -1.1
18) COc1ccc(S(=O)(=O)NCc2nc3nc(C)cc(C)n3n2)cc1OC
    -7.8, 9.2, 4.0, -1.8, -18.3, i, 0.69, ·, -0.2
19) COc1ccccc1CN(C)CC(=O)Nc1ccccc1-c1ccccc1
    -0.3, -55.8, -72.2, -17.0, ·, i, 0.656, 1.7%, 1.1
20) O=C1CC(c2c(F)cccc2Cl)C2=C(COC2=O)N1 (stereo not drawn)
    ·, ·, ·, ·, -3.9, ·, 0.764, 65.1%, 1.7
21) CCC(Sc1nc(-c2ccccc2)cc(=O)[nH]1)C(=O)O (stereo not drawn)
    ·, ·, ·, ·, -1.1, ·, 0.648, >100µM*, 1.3
22) C[C@H](CO)N1C[C@H](C)[C@@H](CN(C)C(=O)c2ccc(F)cc2)Oc2ncc(-c3ccncc3)cc2C1=O
    -2.5, 6.4, 1.9, -4.4, ·, i, ·, ·, ·
23) CCCNS(=O)(=O)c1ccc(OCC(=O)NCCC2=CCCCC2)cc1
    -2.0, 9.6, -1.8, -7.4, -5.6, i, 0.738, 3.5%, 3.4
24) Cc1cccc(NC(=O)Nc2ccc3c(c2)C(=O)N(C)[C@H]2CC[C@H](CC(=O)O)O[C@@H]2CO3)c1
    -2.2, 4.0, 0.7, -2.8, ·, i, ·, ·, ·
25) O=C(O)CCCN1C(=O)C2C3CCC(O3)C2C1=O (stereo not drawn)
    ·, ·, ·, ·, -3.7, ·, 0.705, -9.8%, -2.5
26) CCc1ccccc1NC(=O)c1cnn(-c2ccccc2)c1C
    -9.8, -15.8, -29.1, -5.6, -3.0, ·, 0.607, ·, 1.5
27) CS(=O)(=O)Nc1ccc2c(c1)[C@H]1C[C@@H](CC(=O)NCc3ccc(Cl)cc3)O[C@@H](CO)[C@H]1O2
    -1.3, 1.3, 3.5, 0.5, ·, i, ·, ·, ·
28) CCCC1=NN(C(=O)Cc2ccc(OC)cc2)C(O)(C(F)(F)F)C1 (stereo not drawn)
    ·, ·, ·, ·, -2.0, ·, 0.697, ·, -0.3
29) COc1ccccc1OCC(=O)Sc1ccc(C)cc1
    ·, ·, ·, ·, 98.0*, ·, 0.616, -1.6%, -1.0
30) COCCN1C(=O)C(=O)/C(=C(/O)c2ccc(S(=O)(=O)N3CCOCC3)cc2)C1c1cccc([N+](=O)[O-])c1 (stereo not drawn)
    ·, ·, ·, ·, 3.9, ·, 0.706, ·, -5.1
31) CC1=C(C(=O)OC2CCCC2)C(c2coc3ccc(C)cc3c2=O)C2=C(CCCC2=O)N1 (stereo not drawn)
    2.8, -26.6, -32.1, -7.5, -2.1, ·, 0.675, 7.2%, 3.8
32) COc1ccc(NC(=O)N[C@H]2CC[C@H](CC(=O)NC3CCC3)O[C@@H]2CO)cc1
    -6.9, 0.4, -4.5, -3.0, ·, i, ·, ·, ·
33) CSc1ccc(NC(=O)C2(C)CCN2C(=O)C2(c3ccccc3)CC2)cc1 (stereo not drawn)
    -3.6, -8.8, -30.1, -4.2, ·, i, ·, ·, 2.0
34) COc1ccc(CCC(=O)NC2CCCCC2)cc1
    -0.7, 0.9, -0.3, -0.1, -2.4, i, 0.706, -2.3%, 3.3
35) O=C(NC1CCS(=O)(=O)C1)Oc1ccc(Cl)cc1 (stereo not drawn)
    ·, ·, ·, ·, -19.5, ·, 0.665, 1.8%, -3.4
36) O=C(NC(=S)Nc1ccc(S(=O)(=O)Nc2nccs2)cc1)c1cccnc1
    -1.0, 1.4, 2.3, -1.8, 43.6, i, ·, -8.0%, -2.1
37) COCCN(CC(=O)NCC1CCCO1)C(=O)CCC(=O)Nc1ccccn1 (stereo not drawn)
    -1.4, 10.0, -2.3, 2.1, -3.1, i, 0.662, -3.7%, 0.1
38) Cc1ccc(C(=O)/C=C/c2c[nH]c3ccccc23)cc1
    -73.1, -7.7, 10.0, 28.2, 37.3, i, 0.676, 0.6%, 6.0
39) O=S(=O)(c1cccc(-c2nc3ccccc3s2)c1)N1CCOCC1
    ·, ·, ·, ·, -19.6, ·, 0.664, 1.0%, -0.8
40) COc1ccc(NC(=O)c2ccc(NC(=O)c3nc4nc(C)cc(C)n4n3)cc2)cc1
    0.2, 7.4, 12.5, -1.1, ·, i, 0.668, -3.1%, 2.5
41) O=S(=O)(NCc1ccc2c(c1)OCO2)c1ccc(F)cc1
    6.1, 0.0, 4.5, -0.2, -8.9, i, 0.608, ·, -5.1
42) Cc1ccc2nc3c(c(N)c2c1)CCN3c1ccccc1
    ·, ·, ·, ·, ?, ·, 0.67, -6.1%, -1.0
43) CCOc1ccc(CN(C(=O)c2cc(=O)c3cc(C)cc(C)c3o2)C2CCS(=O)(=O)C2)cc1 (stereo not drawn)
    7.2, -6.2, -7.5, 7.5, -7.6, i, 0.712, -1.1%, 1.8
44) COc1cccc(N2CCN(S(=O)(=O)c3cccc4cccnc34)CC2)c1
    7.0, -11.0, -11.4, 1.2, 94.5*, i, 0.714, -7.2%, -3.4
45) CN1CCN(c2ccc([N+](=O)[O-])cc2NC(=O)c2ccccc2)CC1
    ·, ·, ·, ·, ·, ·, 0.677, 8.6%, 1.2
46) O=C(NCC1CCCO1)c1sc(=S)n2c1[nH]c(=O)c1ccc(C(=O)N3CCCCC3)cc12 (stereo not drawn)
    ·, ·, ·, ·, 34.8, ·, 0.692, 3.0%&3.2%, -0.1
47) CC1CCc2c(sc(NC(=O)Cn3nc(C(=O)O)c4ccccc4c3=O)c2C#N)C1 (stereo not drawn)
    -56.7, 8.0, 5.1, -3.8, -6.6, i, 0.725, 1.6%, -2.9
48) O=C(c1cc(-c2ccco2)nc2ccccc12)N1CCN(c2ccc(F)cc2)CC1
    8.5, -1.0, 5.7, 1.4, 18.4, i, 0.681, ?, 5.7
49) O=C(Nc1cc2c3c(c1)CC(=O)N3CCC2)C1CC1
    0.8, 3.1, 10.3, -3.3, -8.0, i, 0.639, -3.7%, -2.5
50) CC(=O)C1=C(O)C(=O)N(Cc2ccco2)C1c1ccc(F)cc1 (stereo not drawn)
    ·, 5.4, 10.1, 6.6, 1.3, ·, 0.675, >100µM*, 3.8
51) O=Cc1ccccc1OCCN1CCCC1=O
    0.6, 5.1, 11.2, 0.3, ·, i, 0.612, -1.7%, -1.0
52) CCOC(=O)CON1C(=O)C(C)(C)N(OCC(=O)OCC)C(=O)C1(C)C
    ·, ·, ·, ·, 2.0, ·, 0.688, 2.9%, 0.6
53) CCCN(CCC)Cc1cc2ccccc2c2c1COC2
    ·, ·, ·, ·, -12.6, ·, 0.673, 1.3%, 0.1
54) CN(C)/C=C(/C(=O)c1ccccc1Cl)S(C)(=O)=O
    0.0, 9.1, 11.6, 1.4, ·, i, 0.66, ·, 2.0
55) CC1CN(c2nnc(-c3ccccc3)c3ccccc23)CC(C)O1 (stereo not drawn)
    -0.2, -19.9, -17.9, -3.5, -3.7, i, 0.658, 2.0%, 0.6
56) O=C(NCC1CCCCC1)[C@@H]1[C@@H](CO)[C@@H]2Cn3c(ccc(-c4ccc(F)cc4)c3=O)[C@H]1N2
    -1.3, -4.0, 2.5, 1.8, ·, i, ·, ·, ·
57) CC(C)c1ccc(NC(=O)c2csnn2)cc1
    -4.2, 8.4, 6.2, -9.8, -13.8, i, 0.659, ?, -2.6
58) Cc1ccc(N(CC(=O)N2CCOCC2)S(C)(=O)=O)cc1Cl
    0.3, 11.2, 12.0, 1.2, -7.0, i, 0.67, ·, -5.9
59) CC1(C(=O)NC2CCCC2)CCC(=O)N1Cc1cccs1 (stereo not drawn)
    ·, 14.0, 15.1, 0.7, 2.2, ·, 0.671, -9.1%, 1.6
60) CCOC(=O)c1sc(NC(=O)CSc2ncccn2)nc1C
    -0.3, -5.1, -19.4, 0.4, -2.8, i, 0.662, ·, -2.0
61) COc1ccc(NS(=O)(=O)c2cccc(C(=O)N/N=C(\C)c3ccncc3)c2)cc1
    1.6, 9.6, 8.3, 6.2, 4.5, i, ·, ·, 3.7

From PubChem BioAssay
